# Source: PubChem
# KCNQ2 enhance: enhances the rat KCNQ2 potassium channel. 0.54% of 310,000 active. B-score at 10 µM. CHO-K1 KCNQ2, FluxOR thallium flux fluorescence; stronger effect = higher value. AID 2239. O88943;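 active = fluorescence ratio B-score at least 3 SD of library B-scores, with initial fluorescence B-score within 3 SD, cut at about 5.3 in these data; same plate scores as AID 2156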;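 note: B-score of peak minus minimum over baseline fluorescence ratio after K+ and Tl+ stimulus; positive B-score means potentiation of KCNQ2 with more thallium influx and brighter signal; only the inactives scoring about 0 or higher are listed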
# Target sequence (O88943 whole entry, looked up): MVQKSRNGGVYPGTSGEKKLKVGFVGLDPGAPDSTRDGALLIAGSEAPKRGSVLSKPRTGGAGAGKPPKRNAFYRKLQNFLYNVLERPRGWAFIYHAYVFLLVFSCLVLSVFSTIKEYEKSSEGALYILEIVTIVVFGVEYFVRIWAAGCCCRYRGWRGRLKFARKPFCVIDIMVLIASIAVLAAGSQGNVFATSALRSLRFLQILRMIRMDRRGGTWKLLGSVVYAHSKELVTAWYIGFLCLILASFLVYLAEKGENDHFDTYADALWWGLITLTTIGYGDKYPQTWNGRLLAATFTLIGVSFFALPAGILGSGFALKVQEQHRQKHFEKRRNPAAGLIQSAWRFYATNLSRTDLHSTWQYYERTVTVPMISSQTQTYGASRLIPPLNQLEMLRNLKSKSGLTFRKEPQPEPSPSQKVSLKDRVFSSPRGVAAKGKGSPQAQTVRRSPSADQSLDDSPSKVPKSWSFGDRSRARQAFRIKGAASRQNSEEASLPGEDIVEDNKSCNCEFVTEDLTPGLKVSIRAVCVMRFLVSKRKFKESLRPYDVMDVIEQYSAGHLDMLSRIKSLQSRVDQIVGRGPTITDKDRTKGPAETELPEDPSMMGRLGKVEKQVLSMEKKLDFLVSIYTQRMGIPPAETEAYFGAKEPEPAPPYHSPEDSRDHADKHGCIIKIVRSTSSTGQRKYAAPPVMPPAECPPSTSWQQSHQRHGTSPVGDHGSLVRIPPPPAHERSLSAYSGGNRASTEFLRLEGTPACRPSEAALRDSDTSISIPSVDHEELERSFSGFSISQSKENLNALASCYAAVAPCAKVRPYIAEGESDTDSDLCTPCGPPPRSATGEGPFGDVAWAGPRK
# KCNQ2 enhance baseline: also measured in KCNQ2 enhance; calls as there; B-score; compound at 10 µM; measured here: initial fluorescence intensity artifact check;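 brightness before thallium and not channel activity; 0 = typical well and far values either way flag optical interference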
# * marks the source's active call; other numbers are inactive results. A portion of the library; count on the stated rates, not on these rows.
SMILES,KCNQ2 enhance,KCNQ2 enhance baseline
CC(CNc1ccc([N+](=O)[O-])c2cccnc12)Nc1c([N+](=O)[O-])cc(C(F)(F)F)cc1[N+](=O)[O-] (configuration not stated),1.2,-0.14
Cn1c(/C(C#N)=C(\O)c2cc(Cl)sc2Cl)nc2ccccc21,0.51,1.3
COc1ccc(OC)c(S(=O)(=O)N2CCCc3ccccc32)c1,1.5,-0.01
CCOc1ccccc1N1CCN(S(=O)(=O)c2ccc3c4c(cccc24)C(=O)N3)CC1,1.8,-0.21
COC(=O)C(c1ccccc1)C1(O)CC(C)N(C)CC1C (configuration not stated),0.79,-2.1
CCCN1CCN(CCCNC(=O)Cn2nc(C)n3c(cc4cc(OC)ccc43)c2=O)CC1,0.9,-0.09
C=CCn1cnc2c(c1=O)c1nc3ccccc3nc1n2-c1ccc(C)cc1,0.4,-0.01
CC(c1ccccn1)N(C)C(=O)c1ccc2nc(Cc3ccccc3F)oc2c1 (configuration not stated),0.03,0.29
C=CCn1c2ccccc2c2nnc(SCC(=O)OCN3C(=O)c4ccccc4C3=O)nc21,1.1,-0.48
COC(=O)C1CCN(c2cnccn2)CC1,0.69,-0.26
CC(C)c1ccc(CNCCCSc2ncccn2)cc1,0.12,0.98
C/C(=N\NC(=O)c1n[nH]c2c1CCC2)c1ccco1,1.4,-1.4
CC(=O)Nc1ccc(NC(=O)C2CC(=O)N(C(C)C)C2)cc1 (configuration not stated),0.03,0.08
CC(C)C(C(=O)Nc1nccs1)c1ccc(Cl)cc1 (configuration not stated),0.02,-0.18
O=C(O)c1ccc(Cl)c(S(=O)(=O)NC(Cc2c[nH]c3ccccc23)C(=O)O)c1 (configuration not stated),0.8,0.03
N#Cc1c(C(F)(F)F)cc(-c2ccc(F)cc2)[nH]c1=O,1.5,-1.5
O=C(NNS(=O)(=O)c1ccccc1[N+](=O)[O-])c1ccc(F)cc1,1.8,-0.62
CCCc1cc(=O)[nH]c2nnc(SCC(=O)NCc3ccc4c(c3)OCO4)n12,0.01,0.55
CCOc1cc(NC(=S)NCc2ccco2)c(OCC)cc1NC(=O)CC(C)C,0.22,0.62
COc1cc2c(cc1NC(=O)C1CCCO1)oc1ccccc12 (configuration not stated),1.4,-0.87
NC(=O)c1ccc(Oc2ccc(C(N)=O)cc2)cc1,0.79,0.12
CCc1cc2cc(C(=O)Nc3ccc(F)cc3)sc2s1,1.8,-0.55
O=C(CCC(=O)Nc1ccc(F)cc1)N/N=C/c1cccnc1,0.1,-1.6
CC(C)CC(=O)Nc1cccc(-c2cn3ccsc3n2)c1,1.6,-0.33
O=C(O)c1ccc(NC(=S)NC(=O)c2ccc(-c3ccccc3)cc2)cc1,0.62,0.86
COc1cc(C(C(=O)NC(C)(C)C)N(C(=O)CNC(=O)c2cccs2)c2cccnc2)cc(OC)c1OC (configuration not stated),0.84,-1.5
Cc1ccc(NC(=O)c2cc(S(=O)(=O)c3ccccc3)ccc2Cl)cc1,1.9,-1.1
Cc1c(Cl)cccc1NC(=S)NCc1cccs1,3.4,-0.88
CCN(CC)CCP(=O)(c1ccccc1)c1ccccc1,0.19,0.46
CC(=O)Nc1nc(-c2ccc3c(c2)CCO3)cs1,0.33,-1.6
CNC(=S)N1CCN(c2ccc(Cl)c(Cl)c2)CC1,0.41,-0.3
Cc1ccc(C(=O)NCCC(=O)N2CCC3(CC2)NCCc2[nH]cnc23)cc1,0.82,0.31
Cc1ccccc1N1CCN(C2CCCN(C(=O)c3cn4c(C)cccc4n3)C2)CC1 (configuration not stated),0.72,-1.8
Cc1ccc(C)c(N(CC(=O)NCc2ccco2)C(=O)CNS(=O)(=O)c2ccccc2)c1,0.46,1.2
Cc1ccc(C(=O)NC(=O)CSc2nncn2C)cc1,0.13,0.48
CC(=O)c1c(C)[nH]c(C(=O)OCn2nnc3ccccc3c2=O)c1C,0.07,0.39
S=C(Nc1ccc(Br)cc1)N1CCN(c2ccccn2)CC1,2.2,-1.2
CCCCc1c(O)nc(SCC(=O)NCC2CCCO2)[nH]c1=O (configuration not stated),0.03,-1.2
Nc1nnc(CC(=O)N/N=C/c2cc([N+](=O)[O-])cc(Br)c2O)s1,0.93,-0.58
CC(=O)c1c(C)[nH]c(C(=O)COC(=O)CNS(=O)(=O)c2ccccc2)c1C,1.4,0.97
Cc1ccc(/C(O)=C2\C(=O)C(=O)N(C)C2c2ccc(F)cc2)cc1 (configuration not stated),0.2,3
COC(=O)c1ccc(C(=O)OC)c(NC(=O)CCS(=O)(=O)Cc2ccccc2)c1,0.34,-2
COc1ccc(C(=O)NCC(=O)N/N=C(\C)Cc2ccccc2)cc1,2.4,1.4
COc1ccc(CC(=O)NC(C)c2nnc(SCC(=O)Nc3ccccc3)n2C)cc1 (configuration not stated),0.03,0.2
COc1ccc(C2=NOC3(CC(=O)N(c4ccc(Cl)cc4)C3=O)C2)c(OC)c1 (configuration not stated),0.96,-2.2
COc1cccc(-n2c(SCC(=O)NCC3CCCO3)nc3c(c2=O)SCC3)c1 (configuration not stated),0.03,0.26
CCn1c(=N)c(S(=O)(=O)c2ccc(C)cc2)cc2c(=O)n3ccccc3nc21,0.04,-0.36
CN(C(=O)COC(=O)CCc1nc2ccccc2c(=O)[nH]1)C1CCS(=O)(=O)C1 (configuration not stated),1.2,0.72
COc1ccc(CN2CNc3c(c(=O)n(C)c(=O)n3C)C2)cc1,1.2,0.57
COc1cc2oc(=O)cc(C)c2c(OC)c1OC,0.11,0.56
O=C(NCc1ccco1)Nc1cccs1,0.21,-0.49
COC(=O)c1ccc(CSc2nnc3nc(C)cc(C)n23)cc1,0.62,-0.84
COc1ccc(Nc2ccc(N3C(=O)CC(C)C3=O)cc2[N+](=O)[O-])cc1OC (configuration not stated),0.27,-1.4
Cc1ccccc1/C=C/C(=O)NCC(=O)N1CCC(N(C)C2CCCCC2C)CC1 (configuration not stated),0.11,-0.6
COc1cc(NC(=O)c2cncc(-c3ccc(C#N)cc3)c2)cc(C(=O)Nc2cccc(C(F)(F)F)c2)c1,2.3,-0.73
CCOCCCNC(=O)CSc1ccccc1,0.53,0.57
C#CC(C)(CC)NC(=O)c1cc2nc(C3CC3)cc(C(F)(F)F)n2n1 (configuration not stated),1,0.04
Cc1ccc(-c2nn(-c3ccccc3)cc2/C=C(\C#N)c2cccc(C#N)c2)o1,0.01,-1.4
COc1ccc(NC(=O)C(C)Oc2ccc(/C(C)=N\O)cc2)cc1 (configuration not stated),0.66,-0.01
O=C(/C=C/c1ccco1)c1ccc(NC(=O)C23CC4CC(CC(C4)C2)C3)cc1,0.76,-0.82

# Some of the entries so far, with values ahead of the structure:
KCNQ2 enhance | KCNQ2 enhance baseline | canonical_smiles
0.03 | 0.26 | COc1cccc(-n2c(SCC(=O)NCC3CCCO3)nc3c(c2=O)SCC3)c1 (configuration not stated)
0.04 | -0.36 | CCn1c(=N)c(S(=O)(=O)c2ccc(C)cc2)cc2c(=O)n3ccccc3nc21
1.2 | 0.72 | CN(C(=O)COC(=O)CCc1nc2ccccc2c(=O)[nH]1)C1CCS(=O)(=O)C1 (configuration not stated)
1.2 | 0.57 | COc1ccc(CN2CNc3c(c(=O)n(C)c(=O)n3C)C2)cc1
0.11 | 0.56 | COc1cc2oc(=O)cc(C)c2c(OC)c1OC
0.21 | -0.49 | O=C(NCc1ccco1)Nc1cccs1
0.62 | -0.84 | COC(=O)c1ccc(CSc2nnc3nc(C)cc(C)n23)cc1
0.27 | -1.4 | COc1ccc(Nc2ccc(N3C(=O)CC(C)C3=O)cc2[N+](=O)[O-])cc1OC (configuration not stated)
0.11 | -0.6 | Cc1ccccc1/C=C/C(=O)NCC(=O)N1CCC(N(C)C2CCCCC2C)CC1 (configuration not stated)
2.3 | -0.73 | COc1cc(NC(=O)c2cncc(-c3ccc(C#N)cc3)c2)cc(C(=O)Nc2cccc(C(F)(F)F)c2)c1
0.53 | 0.57 | CCOCCCNC(=O)CSc1ccccc1
1 | 0.04 | C#CC(C)(CC)NC(=O)c1cc2nc(C3CC3)cc(C(F)(F)F)n2n1 (configuration not stated)
0.01 | -1.4 | Cc1ccc(-c2nn(-c3ccccc3)cc2/C=C(\C#N)c2cccc(C#N)c2)o1
0.66 | -0.01 | COc1ccc(NC(=O)C(C)Oc2ccc(/C(C)=N\O)cc2)cc1 (configuration not stated)
0.76 | -0.82 | O=C(/C=C/c1ccco1)c1ccc(NC(=O)C23CC4CC(CC(C4)C2)C3)cc1

# (cont.)
SMILES,KCNQ2 enhance,KCNQ2 enhance baseline
C=CCn1c(C)cc(-c2csc(NC(=O)C3=COCCO3)n2)c1C,0.79,0.02
COc1ccc(CC(=O)NC(C)c2nnc(SCC(=O)c3ccc(OC)cc3)n2C)cc1 (configuration not stated),1.8,-0.03
N#CC(C(=S)Nc1ccccc1)c1nc2ccccc2[nH]1 (configuration not stated),1.4,-1.2
CCOC(=O)c1c(C)[nH]c(C(=O)Nc2ccc3c(c2)OCO3)c1C,2.5,-1
COc1ccc(CCNCC(O)COc2ccc(Cl)cc2)cc1OC (configuration not stated),1.4,2.8
S=c1[nH]nc(COc2ccc3c(c2)OCO3)n1-c1ccccc1,1.6,-2.1
Cc1ccc(OCCC(=O)NNC(=O)c2cc(C)oc2C)cc1,1.6,-0.15
O=C(c1cc(COc2ccc(F)cc2Cl)on1)N1CCN(C2CCCC2)CC1,2.9,-0.72
CCN1CCc2c(sc(NC(=S)NC(=O)c3ccc(Cl)cc3)c2C(N)=O)C1,0.68,0.35
CN(C)S(=O)(=O)N1CCc2ccc(NC(=O)c3ccccc3Cl)cc2C1,1.7,-0.15
N#Cc1ccc(/C=N/N=C(N)N)cc1,0.29,2.1
CCOc1ccccc1NC(=O)c1cc(S(=O)(=O)N2CCOCC2)ccc1C,0.01,1.7
COc1ccc(OC)c(S(=O)(=O)CC(O)COc2ccccc2Cl)c1 (configuration not stated),1.6,-1.8
Cc1ccc(-n2nnnc2SCC(=O)NNC(=O)c2ccco2)cc1C,0.17,0.57
Cc1ccc(Nc2ccc3nonc3c2[N+](=O)[O-])cc1,0.03,0.29
C=CCN(CC=C)C(=S)NC(=O)c1ccc(OC)cc1,3,1.3
COc1ccccc1OCCCCN1CCN(c2ccccc2OC)CC1,1.3,1.4
Cc1cc(C(=O)Nc2c(C)nn(Cc3c(Cl)cccc3Cl)c2C)no1,0.08,-0.04
O=C(CCCCn1c(=O)c2ccccc2n(Cc2ccccc2)c1=O)NC1CCN(Cc2ccccc2)CC1,0.62,0.96
COc1cc(C(=O)Nc2ccc3c(c2)OCCO3)ccc1-n1cnnn1,1.1,-0.12
O=C(C1CCN(S(=O)(=O)c2cccc3cccnc23)CC1)N1CCN(c2ccccn2)CC1,2.1,-0.07
Cn1cnnc1SCC(=O)NC1CCCc2ccccc21 (configuration not stated),0.45,-0.87
O=C(NCC1CCN(Cc2ccccc2F)CC1)Nc1cccc(Br)c1,1.2,-1.3
CCOC(=O)CCCN1CC(O)=C(c2nc(-c3ccc(Cl)cc3)cs2)C1=N,1.2,0.49
Cc1sc(NC(=O)CCl)c(C(=O)c2ccccc2)c1C,0.96,-2.2
COc1ccc(NC(=O)c2cc(=O)[nH]c3ccccc23)cc1,0.02,0.9
N#CCCn1cc(C(CC(=O)c2ccc(Br)cc2)C(=O)O)c2ccccc21 (configuration not stated),0.49,0.07
Cc1cc(NC(=O)C2Oc3ccccc3OC2C)no1 (configuration not stated),0.3,0.33
CC(Cc1cccs1)NC(=O)Nc1cccc(Cl)c1 (configuration not stated),3.2,-2.8
Cc1ccc(Nc2nc(-c3ccc(S(=O)(=O)N4CCOCC4)cc3)cs2)cc1Cl,0.86,0.1
NNC(=O)c1c[nH]c2ccc(OCc3ccccc3)cc12,1.2,0.22
CCOC(=O)N1CCN(C(=O)CSc2nc3c([nH]c4ccccc43)c(=O)n2CCOC)CC1,1.6,-0.02
Cn1nc(-c2ccccc2)c2ncc(C(F)(F)F)cc21,0.94,-0.08
O=C(NC(=O)c1ccc(C(F)(F)F)cc1)Nc1ccc(-c2cnco2)cc1,0.15,3.2
Cc1ccc[n+](Cc2ccc([N+](=O)[O-])cc2)c1,1.6,-2.1
COc1ccc(N2CCN(C(=O)C(OC(C)=O)c3ccccc3)CC2)cc1 (configuration not stated),0.04,0.04
c1ccc2c(c1)oc1c(N3CCOCC3)ncnc12,0.36,-0.42
COc1ccc(N2CCN(C(=O)c3oc4c(c3C)C(=O)CCC4)CC2)cc1,2.2,0.05
O=C(Nc1ccc(NC(=O)c2cc([N+](=O)[O-])ccc2N2CCOCC2)cc1)c1cccs1,0.06,-1.3
CCc1cc2c(=O)c(-c3nc4ccccc4n3C)c(CCCC(=O)O)oc2cc1OC(=O)C(C)(C)C,0.89,-0.78
COC(=O)c1sc(=S)sc1C(=O)OC,0.65,-0.06
Cc1ccc(/C(O)=C/C(=O)C(=O)NC23CC4CC(CC(C4)C2)C3)cc1,3.6,0.07
N#CC1=C(N)Oc2ccc3ccccc3c2C1c1cccnc1 (configuration not stated),0.11,2
Cc1cc(NC(=O)Cc2ccccc2)nc2c1c(=O)oc1ccccc12,1.7,-0.14
Nc1nc(N)c2[nH]cnc2n1,0.8,-0.95
O=C1Nc2ccccc2C12OCCS2 (configuration not stated),0.51,0.64
Cc1cc(NC(C)C)n2c(nc3ccccc32)c1C#N,1,-2.8
C=CCn1nnnc1-c1cccc(Cl)c1,1.4,1.4
Cc1cc(C)n2c(SCc3nnc(-c4cccs4)o3)nnc2n1,0.05,0.8
O=C(O)c1cccc(N2C(=O)c3cccc4c(Cl)ccc(c34)C2=O)c1,0.44,0.12
CC(C(=O)Nc1ccccc1Oc1ccccc1)c1ccccc1 (configuration not stated),8.9*,-0.03*
Cc1ccc(OCCn2c(=S)[nH]c3c(N)ncnc32)cc1,0.21,-0.07
CCC(C)Nc1nc2c(c(=O)n(C)c(=O)n2C)n1C (configuration not stated),1.2,0.38
C[C@@H]1C=C(C(=O)NCc2nc3ccccc3[nH]2)O[C@H](OCCCCO)C1,0.76,0.36
Cc1cc(C)nc(Nc2n[nH]c(COc3ccc4ccccc4c3)n2)n1,1.5,-0.03
CC(C)c1c(O)cc(-c2ccncc2)n(-c2ccc(Cl)cc2)c1=O,2.5,1
